Calb FLC = affects C. albicans growth with fluconazole | growth inhibition, % (concentration not given with the values) | hit rate 0.57% among 300,000 | C. albicans CaCi-2 (fluconazole-resistant clinical isolate) + fluconazole, Alamar Blue growth, 48 h;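 active = most replicates above 75%; inconclusive = exactly half above 75%; inactive = most below 75%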;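 also: all wells also contain fluconazole at 8 µg/ml as a sub-toxic cotreatment; 0% = median of DMSO wells and 100% = median of geldanamycin control wells; wells of about 8 µL received 7.5 nL stock; the first replicate is given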
Bfl-1 A1 inh = inhibitors of the anti-apoptotic protein A1, read as caspase activation; caspase activation, % (concentration not given with the values); hit rate 0.066% among 330,000; MEF A1-2A-BIM cells, Caspase-Glo 3/7 luminescence, 3 h; percent of clofoctol response, vehicle zero;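 active = over half of replicate activation scores above 10%, or exactly half above 10 with the replicate mean above 10; inconclusive = replicate mean below 10 yet half the replicates above 10; inactive = over half of replicates below 10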;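 also: wells of about 30 µL received 50 nL stock; many hits fall short of the cut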
RanGTP-Imp inh = disruptors of Ran-importin-beta complex formation – biochemical, FRET, CFP-Ran, YFP-importin-beta, homogeneous, primary screen; inhibition, % (no concentration beside the values); cell-free CFP-Ran/YFP-importin-beta FRET ratio; hit rate 1.1% among 300,000;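 active = most replicates above 15%; inconclusive = exactly half above 15%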;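 also: 0% = DMSO wells and 100% = Ran loaded with GDP instead of GTP; wells of about 40 µL received 100 nL stock; the first replicate is given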
T cruzi repl = T. cruzi replication inhibition; hit rate 1.4% among 300,000; T. cruzi beta-gal in NIH3T3, luminescence, 90 h; inhibition, % (no concentration beside the values);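 active = mean inhibition across valid replicates above about 55%, limit read from the data; inconclusive = mean below that limit but half or more replicates reach it; inactive = mean below it, under half of replicates reach it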;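 also: signal also drops with host cell toxicity which is not excluded here; 0% = plate median of DMSO wells and 100% = zero luminescence signal; higher percent means less beta-gal luminescence so fewer parasites; stock transfer was 50 nL into about 50 µL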
LANA-H2A inh = blocks KSHV LANA binding to histone H2A/H2B | Q9QR71 | cell-free LANA-H2A/H2B peptide, fluorescence polarization | inhibition, % (test concentration not listed) | hit rate 0.6% among 320,000; in the data active = inhibition mostly above about 10%, no sharp cut-off; inactive = mostly below about 6.7%;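 also: stock transfer was 7.5 nL into about 10 µL; 0% = median of vehicle wells and 100% = median of positive control wells; one replicate is shown; the record names a cut of 25% in any replicate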
Beta cell apopt = beta cell apoptosis inhibition; INS-1E cytokine-induced death, ATP luminescence, 48 h; percent of positive-control rescue, neutral wells zero; protection from apoptosis, % (no concentration beside the values); hit rate 0.8% among 300,000; AID 435005;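 active = all replicates at 75% or more, or half of them and the mean; inconclusive = half reach 75% but not the mean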;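 also: 0% = cytokine-treated negative control wells and 100% = positive control rescue; higher means more ATP so stronger rescue from cytokine killing; wells of about 40 µL received 100 nL stock; the first replicate is given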
AF4-AF9 inh = inhibitors of human MLL-AF4/AF9 interaction; hit rate 0.47% among 350,000; AlphaScreen, biotin-AF4 peptide binding to FLAG-AF9; P42568; AID 651704; inhibition, % at 10 µM;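 active = every replicate reaching a set inhibition limit, whatever the replicate mean, cut at about 25% in these data; inconclusive = mean inhibition reaches that limit but some replicates miss it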;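 also: 0% = plate neutral control median and 100% = total signal loss; the record names both 10 and 1 µM as test concentration; the first replicate is given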
Target sequence (P42568 whole entry, looked up): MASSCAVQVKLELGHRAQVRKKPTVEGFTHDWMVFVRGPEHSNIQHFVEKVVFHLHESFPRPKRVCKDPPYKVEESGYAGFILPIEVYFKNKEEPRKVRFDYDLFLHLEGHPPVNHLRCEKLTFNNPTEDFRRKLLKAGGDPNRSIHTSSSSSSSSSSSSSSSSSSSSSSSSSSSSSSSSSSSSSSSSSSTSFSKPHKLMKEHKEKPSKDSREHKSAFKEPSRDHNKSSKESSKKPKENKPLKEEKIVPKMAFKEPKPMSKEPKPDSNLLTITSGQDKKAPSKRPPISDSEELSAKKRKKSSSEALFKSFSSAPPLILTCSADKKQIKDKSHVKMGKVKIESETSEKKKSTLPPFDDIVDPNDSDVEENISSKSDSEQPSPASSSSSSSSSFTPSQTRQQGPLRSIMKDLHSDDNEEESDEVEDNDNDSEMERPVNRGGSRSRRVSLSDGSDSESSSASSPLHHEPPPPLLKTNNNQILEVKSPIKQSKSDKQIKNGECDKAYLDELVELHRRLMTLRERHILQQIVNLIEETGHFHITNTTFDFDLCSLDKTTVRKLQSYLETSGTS
Vif A3G = HIV-1 Vif–A3G interaction blockers – biochemical, TR-FRET, GST-Vif 1-94, biotin-A3G peptide, dose response retest, primary screen (AID 1117319); TR-FRET GST-Vif / biotin-A3G peptide binding; higher % means a stronger effect; test concentration not given here; strong numbers were not always called active; inhibition, %; hits with a dose series show IC50 in µM; hit rate 0.57% among 260,000;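 active = above the screen mean plus three standard deviations and confirmed in dose response; inconclusive = results disagree or hit not tested in dose response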;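 also: Vif residues 1-94 fused to GST binding biotinylated APOBEC3G peptide 110-148; 0% = full assay without inhibitor and 100% = GST in place of GST-Vif; retest series ran down from 100 µM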
The depositor's hits bear a star; i = inactive; ? = inconclusive; / = no result given; & = joins results of further samples.

SMILES | Calb FLC | Bfl-1 A1 inh | RanGTP-Imp inh | T cruzi repl | LANA-H2A inh | Beta cell apopt | AF4-AF9 inh | Vif A3G
COc1ccc(S(=O)(=O)N2CCC(C(=O)NC3CCCCC3)CC2)cc1C | -1 | -0.6 | ? | 1 | -0.6 | 2 | -4.7 | -5%
COC(=O)c1cc(=O)n(Cc2cccs2)c(=Nc2ccccc2)s1 | -2 | -0.8 | 1.2 | 54 | 1.8 | -1 | -5.5 | -6%
CC1(c2ccccc2)NC(=O)N(CC(=O)N2CC(=O)Nc3ccccc32)C1=O (stereo not drawn) | / | 0.1 | / | / | 3.0 | -3 | -3.7 | -10%
Cc1ccccc1-c1nc(CN2CCC(C(=O)N3CCN(c4ccccn4)CC3)CC2)c(C)o1 | -14 | 0.0 | -0.9 | -1 | 2.5 | 1 | 5.2 | 43µM*
COc1ccccc1NC(=O)C1CC(=O)OC1c1ccccc1 (stereo not drawn) | -2 | -0.1 | -1.6 | -7 | 3.2 | -1 | / | 4%
COc1cccc(-c2nnn(C/C(N)=N/O)n2)c1 | 4 | 0.5 | 4.7 | -35 | -3.3 | -3 | -4.7 | /
CCCOc1ccc(S(=O)(=O)N2C(=O)CC(=O)N(Cc3ccc(OCC)cc3)C2=O)cc1 | 1 | -0.1 | 5.2 | 2 | -11 | -8 | -4.4 | -6%
CSc1ncccc1C(=O)OCC(=O)N(CC(C)C)c1c(N)n(Cc2ccccc2)c(=O)[nH]c1=O | 2 | 1.8 | 0.2 | -10 | 0.9 | 1 | 1.2 | /
COc1ccc(/C=C/C2=NN(Cc3ccccc3)C(=O)CC2)cc1 | 8 | -0.8 | ? | 7 | -2.4 | -4 | 3.5 | -7%
Cc1scc(C(=O)N/N=C/c2ccsc2)c1C | 2 | -0.3 | 4.2 | -4 | 2.4 | -10 | -13 | /
O=C(NCc1ccccn1)c1cc(S(=O)(=O)N2CCN(c3ccccc3)CC2)ccc1Cl | -3 | -0.1 | -3.8 | 9 | -5.7 | 1 | / | 2%
CCCC(=O)Nc1ccc(Cl)c(NC(=S)NC(=O)c2ccco2)c1 | 52 | 0.6 | 3.2 | -16 | -1.7 | / | 3.0 | /
COc1ccccc1NC(=O)NNC(=O)CN1C(=O)COc2ccccc21 | 0 | 0.5 | 5.2 | 2 | 0.9 | -8 | -0.3 | /
CCN(CCCNS(=O)(=O)c1cc(-c2cc(C)no2)ccc1C)Cc1ccccc1 | 3 | -0.8 | 1.5 | 49 | 0.3 | -7 | 4.4 | /
Clc1ccc(Cn2ccc3ccccc32)cn1 | 4 | -0.4 | 3.6 | -11 | -2.5 | -4 | 0.2 | -10%
C=CC[C@@H](Cc1ccc(F)cc1)C(=O)OC[C@@H]1CCCN1C(=O)[C@@H](CC=C)CC(=O)N(CCO)Cc1ccccc1 | / | 1.0 | / | / | 1.2 | -3 | -0.6 | /
Cc1ccc(N2CCN(/N=C/c3sccc3C)CC2)cc1 | -16 | -0.7 | ? | / | -1.8 | -1 | / | 10%
CCCC(=O)N1CCC(Cc2ccccc2)CC1 | 27 | -0.1 | 0.5 | -13 | -0.2 | 0 | -1.6 | /
CCC(CC)C(=O)Nc1cccc(C(=O)NCc2ccco2)c1 | -21 | -0.4 | 1.2 | -2 | 4.8 | -1 | / | 28%
O=C(CN1CCN(c2ccccc2)CC1)N1CCN(c2ccccc2)CC1 | 3 | 0.6 | 0.1 | -6 | 0.6 | -5 | 4.0 | 12%
CN(C)CC(CCC(CN(C)C)C(O)(c1ccccc1)c1ccccc1)C(O)(c1ccccc1)c1ccccc1 (stereo not drawn) | -18 | / | -4.1 | 40 | / | / | 15 | /
CN1C(C)(C)CC(NC(=O)c2ccco2)CC1(C)C | 3 | 0.8 | 0.8 | -2 | -3.1 | 0 | -4.9 | 13%
COc1ccccc1C(c1nnnn1C(C)(C)C)N1CCN(C(=O)c2ccco2)CC1 (stereo not drawn) | 2 | 0.7 | 3.5 | 8 | -0.2 | / | / | 1%
CCOc1ccccc1C(=O)NC(C)c1ccc(-n2ccnc2)cc1 (stereo not drawn) | 4 | 1.2 | ? | -11 | 0.9 | 4 | -2.6 | 4%

Some of these compounds in order of the AF4-AF9 inh value, ascending.
mol | AF4-AF9 inh
CN1C(C)(C)CC(NC(=O)c2ccco2)CC1(C)C | -4.9
CCOc1ccccc1C(=O)NC(C)c1ccc(-n2ccnc2)cc1 (stereo not drawn) | -2.6
COc1ccccc1NC(=O)NNC(=O)CN1C(=O)COc2ccccc21 | -0.3

The list continues:
SMILES | Calb FLC | Bfl-1 A1 inh | RanGTP-Imp inh | T cruzi repl | LANA-H2A inh | Beta cell apopt | AF4-AF9 inh | Vif A3G
CSc1ccccc1NC(=O)c1onc(C)c1Cl | 10 | -0.4 | 2.0 | 2 | -0.8 | 2 | 5.8 | -11%
COc1ccc(Br)cc1C(=O)NCc1cccnc1 | -1 | -0.3 | 0.7 | -4 | -6.5 | -2 | / | 7%
CCc1cccc(CC)c1NC(=O)CO/N=C(\C)c1cccs1 | -30 | -0.3 | 0.7 | -3 | -0.1 | -4 | / | /
COc1cccc(OC)c1C(=O)OCC(=O)Nc1ccc(OC(F)(F)F)cc1 | 25 | -0.1 | -0.6 | -5 | 2.9 | -5 | / | 0%
CC1C(=O)N2CCCc3cc(NC(=O)C4CCCCC4)cc1c32 (stereo not drawn) | 11 | 0.1 | 3.0 | 1 | 1.5 | -3 | -4.5 | -3%
CC(=O)N1CCN(CC(=O)Nc2c(Cl)cc(Cl)cc2Cl)CC1 | -5 | -0.1 | 6.5 | 2 | 5.4 | -7 | 1.2 | -6%
CC(C)CC(NC(=O)C(CC(C)C)NC(=O)OC(C)(C)C)C(N)=O (stereo not drawn) | 0 | 0.9 | -1.3 | -26 | -4.8 | 2 | / | 7%
O=C(/C=C/c1ccco1)NC(=S)Nc1ccc(Cl)cn1 | -7 | 0.0 | 0.0 | -20 | / | 4 | / | ?
CCC(C)c1ccccc1N1CC(C(=O)N2CCN(S(=O)(=O)c3ccccc3Br)CC2)CC1=O (stereo not drawn) | -5 | -0.1 | ? | -2 | 2.4 | 6 | -4.3 | 2%
COc1cccc(NC(=O)CN2CCSc3ccccc32)c1 | -12 | 1.0 | 1.4 | -6 | 2.5 | -4 | 7.8 | /
C[C@H](CO)N1C[C@H](C)[C@@H](CN(C)C)Oc2c(NS(=O)(=O)c3cn(C)cn3)cccc2C1=O | / | -0.1 | / | / | i | -6 | -1.6&-1.0 | 2%
CCOc1ccc(-n2c(SCC(=O)Nc3ccccc3CC)nc3n[nH]c(C)c3c2=N)cc1 | 6 | 0.0 | 2.3 | -38 | 7.3 | 30 | -3.5 | -2%
CCC(CC)C(=O)NCc1cccnc1 | -4 | 0.2 | 3.8 | -17 | -5.0 | -4 | 0.6 | 13%
O=C(CCc1ccc(S(=O)(=O)N2CCOCC2)cc1)NCCc1ccccn1 | -13 | -0.2 | 1.9 | -6 | -3.0 | -5 | / | -3%
O=C(COc1ccc([N+](=O)[O-])cc1)Nc1ccc2c(c1)nc1n2CCOC1 | -6 | 0.4 | -1.8 | -8 | -1.2 | -1 | -6.5 | /
Cc1ccc(CCC(=O)Nc2ccc(Br)cc2)o1 | 3 | ? | -1.2 | -12 | 1.9 | -5 | 4.8 | 3%
Cc1ccc(CNC(=S)NC2CCC(C(C)(C)C)CC2)cc1 (stereo not drawn) | 20 | 0.0 | -1.8 | 17 | -5.3 | 5 | -0.5 | 5%
O=C(NC(=S)Nc1ccccc1Cl)c1csnn1 | 48 | 0.6 | -4.0 | 15 | -3.2 | -1 | 0.3 | 1%
CCC(=O)c1ccc(OCC(=O)OCC(=O)Nc2ccc3c(c2)OCCO3)cc1 | / | 0.1 | / | / | 14 | -6 | -0.6 | -2%
CCOC(=O)C(C)Oc1cccc2c(=O)n(CC(=O)Nc3ccc(OCC)cc3)ccc12 (stereo not drawn) | -2 | 0.5 | 1.0 | 0 | 0.4 | 1 | 8.6 | -1%
O=C(Nc1cc2ccccc2oc1=O)c1ccccc1 | 10 | 1.0 | -1.5 | -14 | 0.1 | 13 | -1.0 | 2%
CCC(=O)Nc1cccc(C2=NOC3(C2)C[C@H](C(N)=O)N(C(=O)c2ccc(Cl)cc2)C3)c1 (stereo partly drawn) | -8 | -0.4 | 3.1 | -4 | 10 | -11 | 1.9 | 9%
COc1ccc(NC(=O)CCC(=O)NCCO)cc1 | -4 | 0.1 | -1.0 | -5 | 0.7 | 3 | -1.3 | 4%
CN(C)CCCN(C(=O)c1ccc(S(=O)(=O)N2CCCC2)cc1)c1nc2ccc(Br)cc2s1 | -24 | 0.2 | 1.5 | 52 | -0.6 | -6 | 8.4 | /
Cc1ccc2c(c1)N(CC(=O)NC1CCC(C)CC1)C(=O)CO2 (stereo not drawn) | -18 | 0.4 | ? | -47 | 1.7 | 1 | / | 1%
O=C(CSc1nc(-c2ccccc2)cc(C(F)(F)F)n1)N1CCOCC1 | 1 | 0.5 | ? | 2 | 5.8 | -1 | / | -3%
CCC1CCCCN1CCn1c(=S)[nH]c2cc(OC)c(OC)cc2c1=O (stereo not drawn) | 2 | 0.6 | -1.9 | -13 | 0.2 | -2 | / | -4%
CCOc1ccc(NC(=O)c2ccc(CSc3nnc(C)s3)cc2)cc1 | -6 | -0.4 | 2.4 | -6 | 1.9 | 1 | -1.2 | -6%
O=C(CN1CCC(C(=O)c2cccc(Cl)c2)CC1)Nc1ccc(C(=O)O)cc1 | 8 | 0.4 | 4.2 | -4 | 5.6 | -5 | 0.0 | -1%
C/C(=N\NS(=O)(=O)c1ccc([N+](=O)[O-])cc1)c1c[nH]c2ccccc12 | 1 | 0.5 | 5.3 | -9 | -4.8 | -4 | 0.9 | /
CC(=O)Nc1c(O)nc(SCC(=O)Nc2nnc(CC(C)C)s2)[nH]c1=O | / | 1.1 | / | / | -5.5 | -1 | / | 18%
O=C(Nc1ccc(Cl)cn1)C1CCN(c2ncnc3c2nc2n3CCCCC2)CC1 | 11 | 0.9 | 7.1 | -4 | 1.4 | -3 | -1.9 | /
O=C(Nc1nc(=S)ss1)c1ccc(Cl)cc1Cl | 12 | 0.4 | -1.7 | -16 | 2.3 | 23 | / | 1%
COc1ccc(NC(=O)CSCC(=O)N(C)CC(=O)Nc2cccc3ccccc23)cc1 | -5 | 1.2 | -0.1 | -4 | -4.2 | -4 | -0.3 | -7%
O=C(CCC1CCCC1)N=C1SC2CS(=O)(=O)CC2N1c1ccccc1F (stereo not drawn) | 7 | -0.2 | 1.2 | 20 | -1.0 | 0 | 0.7 | /
CC(C)C[C@@H](CSc1ccccc1)N1CCN(CCc2ccccc2)CCC1=O | -10 | -0.7 | ? | 2 | 1.2 | -10 | -4.9 | /
Cc1ncc(N=Nc2ccccc2)c(-c2ccccc2)n1 | 4 | -0.3 | -3.2 | 14 | 3.1 | -12 | / | 14%
COc1ccc(NC(=O)c2ccc(NC(=O)c3ccncc3)cc2)cc1 | -10 | 0.1 | 1.6 | -13 | 0.7 | 1 | 31* | -3%
O=[N+]([O-])c1cc(/C=N/N2CCOCC2)cs1 | -8 | -1.4 | 3.4 | 12 | 1.2 | 0 | 3.4 | -7%
